EPAC2 antag: Validation qHTS for antagonist of cAMP-regulated guanine nucleotide exchange factor 4 (EPAC2) | Rap guanine nucleotide exchange factor 4 (Homo sapiens), Q8WZA2 | EPAC2 Rap1B BODIPY-GDP exchange, fluorescence | Potency, µM (top dose mostly 112 µM), inactives show top-dose activity, negative = inhibition, most hits filed as inhibitors | 1.7% of 16,000 active; active means well fitted inhibition curve with a large enough effect; inconclusive means small, poorly fitted or top-dose-only effect; inactive means no such curve, though single readings can be large or run the other way;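 further: 100% = activation by cAMP agonist control; nearly all actives have a fitted effect of over 40% in size; the record reuses the description of the EPAC1 agonist screen; inactives centre near -10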
Target sequence (Q8WZA2 whole entry, looked up): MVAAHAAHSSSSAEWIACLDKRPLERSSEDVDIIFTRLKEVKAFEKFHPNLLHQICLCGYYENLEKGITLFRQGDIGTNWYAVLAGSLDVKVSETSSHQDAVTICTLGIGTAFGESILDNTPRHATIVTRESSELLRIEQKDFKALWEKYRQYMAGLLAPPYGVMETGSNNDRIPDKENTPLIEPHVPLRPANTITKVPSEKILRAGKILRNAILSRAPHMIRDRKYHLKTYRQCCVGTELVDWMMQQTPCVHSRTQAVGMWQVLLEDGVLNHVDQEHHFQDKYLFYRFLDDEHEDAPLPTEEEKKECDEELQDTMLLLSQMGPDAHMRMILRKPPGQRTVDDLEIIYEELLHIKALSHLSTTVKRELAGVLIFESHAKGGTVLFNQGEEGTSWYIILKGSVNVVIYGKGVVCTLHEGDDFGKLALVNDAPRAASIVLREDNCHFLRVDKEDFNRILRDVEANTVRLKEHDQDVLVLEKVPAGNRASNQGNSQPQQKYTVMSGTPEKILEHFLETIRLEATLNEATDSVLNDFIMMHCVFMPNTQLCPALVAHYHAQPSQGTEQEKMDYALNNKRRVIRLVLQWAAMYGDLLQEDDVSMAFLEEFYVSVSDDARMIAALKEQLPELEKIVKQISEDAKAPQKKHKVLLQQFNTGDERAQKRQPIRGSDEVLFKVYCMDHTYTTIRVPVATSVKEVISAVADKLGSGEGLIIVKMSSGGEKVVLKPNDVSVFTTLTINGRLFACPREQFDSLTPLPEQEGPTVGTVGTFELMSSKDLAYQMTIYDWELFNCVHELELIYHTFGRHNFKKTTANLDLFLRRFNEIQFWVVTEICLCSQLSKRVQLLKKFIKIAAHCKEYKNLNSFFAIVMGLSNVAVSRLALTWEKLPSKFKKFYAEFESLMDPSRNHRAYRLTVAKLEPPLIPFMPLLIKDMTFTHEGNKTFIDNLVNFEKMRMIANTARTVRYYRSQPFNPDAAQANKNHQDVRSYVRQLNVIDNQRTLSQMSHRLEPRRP
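Normalized against a 6.5 mM cAMP agonist control, compounds were tested on 100 nM EPAC2 exchanging Rap1B-bound BODIPY-GDP (250 nM) for 50 uM GDP. Fluorescence drop (ex 480, em 540 nm) was tracked at room temperature over 30 min at 5-min intervals.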
The depositor's hits bear a star; ? = inconclusive; & = joins results of further samples; ! = not active in a repeat; [ ] = remark or other dose. Potency means the concentration at half of the fitted maximal effect. A portion of the library, so the mix of outcomes need not match the whole.

SMILES	EPAC2 antag
COc1cccc(-c2cncnc2NCCN2CCOCC2)c1	-23%
O=c1c(-c2cccc(Cl)c2)nc2cncnc2n1-c1ccccc1	2%
CO[C@H]1C=CO[C@@]2(C)Oc3c(C)c(O)c4c(O)c(c5c(c4c3C2=O)=NC2(CCN(CC(C)C)CC2)N=5)NC(=O)/C(C)=C\C=C/[C@H](C)[C@H](O)[C@@H](C)[C@@H](O)[C@@H](C)[C@H](OC(C)=O)[C@@H]1C	?
N#Cc1cccc(-c2cncnc2NCc2cccnc2)c1	-15%
COc1ccc(-c2cc(=O)c3c(O)cc(O[C@@H]4OC(COC5OC(C)C(O)C(O)[C@@H]5O)C(O)C(O)C4O)cc3o2)cc1 (some centres undefined)	0%
OC(Br)C(O)C(O)N1CCCc2ccccc21 (centres undefined)	-20%
O=C1Cc2c([nH]c3ccc(Br)cc23)-c2ccccc2N1	-30%&-15%
COc1cccc(Nc2ncc3nc(CCc4ccccc4)c(=O)n(C[C@H]4CCCO4)c3n2)c1	-3%
CC1C(=O)OC2CC34C5CC(C(C)(C)C)C36C(OC(=O)C6O)OC4(C(=O)O5)C21O (centres undefined)	-7%
NC[C@H]1O[C@H](O[C@H]2[C@H](O[C@@H]3O[C@H](CO)[C@@H](O)[C@H]3O)C(O)[C@H](N)C[C@@H]2N)[C@H](N)[C@@H](O)[C@@H]1O (some centres undefined)	-1%[56.6 µM]
COc1ccc(C(=O)N2CCC[C@@]3(CCN(C(=O)Nc4cccc(F)c4)C3)C2)cc1	-4%
O=S(=O)(c1ccccc1)N1CCC2(CCCN(Cc3ccccc3)C2)CC1	?

Part of the list above, field by field.
compound: OC(Br)C(O)C(O)N1CCCc2ccccc21 (centres undefined)
  EPAC2 antag: -20%

compound: O=C1Cc2c([nH]c3ccc(Br)cc23)-c2ccccc2N1
  EPAC2 antag: -30%&-15%

compound: CO[C@H]1C=CO[C@@]2(C)Oc3c(C)c(O)c4c(O)c(c5c(c4c3C2=O)=NC2(CCN(CC(C)C)CC2)N=5)NC(=O)/C(C)=C\C=C/[C@H](C)[C@H](O)[C@@H](C)[C@@H](O)[C@@H](C)[C@H](OC(C)=O)[C@@H]1C
  EPAC2 antag: ?

(continued)
SMILES	EPAC2 antag
COc1ccccc1CCn1c(=O)c(-c2cccc(Cl)c2)nc2cncnc21	-25%
CS(=O)(=O)Nc1cccc(-c2ccc3ncnc(NCCN4CCOCC4)c3c2)c1	-9%
COc1ccc2c(c1)OC(C)(C)C(c1ccccc1)C2c1ccc(OCCN2CCCC2)cc1 (centres undefined)	-26%
COc1ccc(CNc2ccnc(-c3ccccc3CN(C)C)n2)c(OC)c1	-6%
CSc1nnc(CNC(=O)c2cccc3ccccc23)n1-c1ccccc1C	-8%
CC(=O)OC1CCC2(C)C3CCC4(C)C(CC5CCCCC54C(C)=O)C3CC(=O)[C@@]2(O)C1 (some centres undefined)	-22%
CN1CCN(C2=Nc3cc(Cl)ccc3Nc3ccccc32)CC1	?
COc1cc(-c2c(OC)cccc2OC)cc2c1OCCN(C(=O)CCC(=O)c1ccc(F)cc1)C2	8%
CN1CCN(c2ncncc2-c2ccoc2)CC1	-27%
O=C(c1ccco1)N1CCC2(CC1)CCN(c1ccc(-c3ccccc3)cc1)CC2	-8%
CC(CN1CC(=O)NC(=O)C1)N1CC(=O)NC(=O)C1 (centres undefined)	20%
COc1cc(CN2CCC3(CCC(CNC(=O)c4ccco4)O3)CC2)cc(OC)c1 (centres undefined)	-1%
CCN[C@@H]1C[C@H](N)[C@@H](OC2OC(CN)=CCC2N)[C@H](O)[C@H]1O[C@H]1OC[C@](C)(O)[C@H](NC)[C@H]1O (some centres undefined)	-17%
COc1ncc2nc(-c3ccc(F)cc3)c(=O)n(CCC#N)c2n1	?
CCN1C(=O)CC(CC(=O)N2CCCCC2c2nccs2)(c2ccccc2C)C1=O (centres undefined)	-9%
CCOc1ccc(CN2CCOc3ccc(C(O)c4cccnc4)cc3C2)cc1 (centres undefined)	-17%
CC(NN)c1ccccc1 (centres undefined)	-1%
CCCCCCC[n+]1ccc(/C=C/c2c(C)[nH]c3ccccc23)c2ccccc21	?
O=C1C(SCCO)=C(SCCO)C(=O)c2ccccc21	?
CN(Cc1ccco1)c1cc(-c2ccccc2Cl)ncn1	-5%
Cn1c(=O)c(CCc2ccccc2)nc2cnc(Nc3ccccc3)nc21	-18%
Cc1ccc(OC[C@H](O)[C@H](C)NC(C)C)c2c1CCC2	?
CC(=O)[C@]1(O)CCC2C3CCC4=CC(=O)CC[C@@]4(C)C3CC[C@]21C (some centres undefined)	-17%
CC1(C)S[C@@H]2[C@H](NC(=O)C(C(=O)Oc3ccc4c(c3)CCC4)c3ccccc3)C(=O)N2[C@H]1C(=O)O (some centres undefined)	-6%
Cc1ccc(C)c(CN2CCC3(CCC(CNC(=O)c4ccnn4C)O3)CC2)c1 (centres undefined)	-16%
Cc1noc(C)c1C(=O)N1CCC[C@@]2(CCN(C(c3ccccc3)c3ccccc3)C2)C1	?
COc1ccc(CN2[C@@H](CC(=O)O)c3ccccc3S2(=O)=O)cc1	-18%
C[N+]1(CC(=O)c2ccc(I)cc2)CCCc2ccccc21 (centres undefined)	?
COc1ccc2cc(CNCc3nonc3C)c(N3CCCC(CO)C3)nc2c1 (centres undefined)	-37%
O=C(c1csnn1)N1CCC2(CC1)CN(c1ccncc1)C2	-3%
Cc1nc2cnc(Nc3ccccc3)nc2n(CCc2ccccc2)c1=O	-18%
CO/N=C(\C(=O)N[C@@H]1C(=O)N2C(C(=O)O)=CCS[C@H]12)c1csc(N)n1	-6%
NC(=O)N1c2ccccc2CC(=O)c2ccccc21	-13%
C=CC1(C)CC(=O)C2(O)C(C)(O1)C(OC(C)=O)C(O)C1C(C)(C)CCC(O)C12C (centres undefined)	-13%
NC(=S)c1ccc[n+]([C@@H]2O[C@@H](COP(=O)([O-])OP(=O)(O)OC[C@H]3O[C@@H](n4cnc5c(N)ncnc54)[C@H](OP(=O)(O)O)[C@@H]3O)C(O)C2O)c1 (some centres undefined)	32%[activator]
O=S(=O)(O)CCCS(=O)(=O)O	-5%
CS(=O)(=O)c1ccc([C@@H](O)[C@@H](CO)NC(=O)C(Cl)Cl)cc1	-4%[56.6 µM]
O=C(c1ccccc1)c1ccc(Cn2cc(-c3ccccc3)nn2)cc1	?
COc1cc(=O)n2c(c1C(=O)N(C)Cc1cscn1)CCN(C(=O)c1ccc(C)c(C)c1)CC2	?
CN1CCN(c2ncc3nc(-c4ccc(Cl)cc4)c(=O)n(C)c3n2)CC1	-23%
N=c1ccn2c(n1)OCC1C2O[C@@H](O)[C@H]1O (some centres undefined)	-21%
Cc1nc2cc(NC(=O)[C@@H]3C[C@@H](Sc4ccccn4)CN3Cc3ccc4c(c3)OCCO4)ccc2s1	-33%
Cc1ccc(CN2[C@H]3CCCC[C@@H]3OCCS2(=O)=O)cc1	26%
Nc1nc2c(nc(Br)n2[C@@H]2O[C@H]3COP(=O)(O)O[C@H]3[C@@H]2O)c(=O)[nH]1	-30%
CC(=O)NCCNc1nc(-c2cccc(C#N)c2)nc2ccccc12	-12%
COCCNC(=O)COc1ccc(OCCNC[C@H](O)COc2ccccc2)cc1	9%
COc1cc(Cl)c(C)cc1N1C(=O)[C@@H]2C[C@H]1CN2Cc1ccccn1	-18%
O=C(O)CCCCC1SCC2NC(=O)NC21 (centres undefined)	-7%

Part of the list above in order of count of non-hydrogen atoms, lowest first.
SMILES	EPAC2 antag
O=S(=O)(O)CCCS(=O)(=O)O	-5%
N=c1ccn2c(n1)OCC1C2O[C@@H](O)[C@H]1O (some centres undefined)	-21%
NC(=O)N1c2ccccc2CC(=O)c2ccccc21	-13%
Cc1ccc(CN2[C@H]3CCCC[C@@H]3OCCS2(=O)=O)cc1	26%
O=C(c1csnn1)N1CCC2(CC1)CN(c1ccncc1)C2	-3%
Nc1nc2c(nc(Br)n2[C@@H]2O[C@H]3COP(=O)(O)O[C@H]3[C@@H]2O)c(=O)[nH]1	-30%
COc1cc(Cl)c(C)cc1N1C(=O)[C@@H]2C[C@H]1CN2Cc1ccccn1	-18%
O=C(c1ccccc1)c1ccc(Cn2cc(-c3ccccc3)nn2)cc1	?
Cc1nc2cnc(Nc3ccccc3)nc2n(CCc2ccccc2)c1=O	-18%
COc1ccc2cc(CNCc3nonc3C)c(N3CCCC(CO)C3)nc2c1 (centres undefined)	-37%
COCCNC(=O)COc1ccc(OCCNC[C@H](O)COc2ccccc2)cc1	9%
COc1cc(=O)n2c(c1C(=O)N(C)Cc1cscn1)CCN(C(=O)c1ccc(C)c(C)c1)CC2	?
Cc1nc2cc(NC(=O)[C@@H]3C[C@@H](Sc4ccccn4)CN3Cc3ccc4c(c3)OCCO4)ccc2s1	-33%
NC(=S)c1ccc[n+]([C@@H]2O[C@@H](COP(=O)([O-])OP(=O)(O)OC[C@H]3O[C@@H](n4cnc5c(N)ncnc54)[C@H](OP(=O)(O)O)[C@@H]3O)C(O)C2O)c1 (some centres undefined)	32%[activator]

The listing continues.
SMILES	EPAC2 antag
CO/N=C(/C(=O)NC1C(=O)N2C(C(=O)O)=C(CSc3nc(=O)c(O)nn3C)CSC12)c1csc(N)n1 (centres undefined)	0%
NC(CO)C(=O)NNCc1ccc(O)c(O)c1O (centres undefined)	-6%&-6%&7%
c1cn(-c2ncnc3ccc(-c4ccoc4)cc23)cn1	-30%
COc1ccccc1CNc1ncnc2ccc(-c3cccc(NS(C)(=O)=O)c3)cc12	-20%
COCCn1c(=O)c(-c2ccc(Cl)cc2)nc2cnc(OC)nc21	?
CCCCC[C@H](O)/C=C/C=C\CCCCCCCC(=O)O	-22%[1.17 µM]
O=C(c1csnn1)N1CCC[C@@]2(CCN(c3ccccc3)C2)C1	-22%
Cc1cccc(C)c1NC(=O)NC1=CCCN1C	9%
Cc1cnc(CNc2nc(-c3ccoc3)nc3ccccc23)cn1	-25%
CN(C)c1ncc2ncc(=O)n(C3CC3)c2n1	-24%
COc1ccccc1C1CN(CC(=O)N2CCC(N3CCOCC3)CC2)Cc2ccccc2O1 (centres undefined)	-2%
COc1ccc(NC(=O)[C@@H]2CC=C[C@@H]3CCN(Cc4ccccc4)C(=O)[C@@H]32)cc1	-22%
O=C(CCCN1CCC(C(=O)c2ccc(F)cc2)CC1)c1ccc(F)cc1	-8%
C#C[C@]1(OC(C)=O)CC[C@H]2[C@@H]3CCC4=C[C@@H](OC(C)=O)CC[C@@H]4[C@H]3CC[C@@]21C	?
COc1ccc(CNc2ncnc3ccc(-c4ccc(C(=O)N(C)C)cc4)cc23)c(OC)c1	-31%
Cc1nc2cncnc2n(Cc2ccccc2Cl)c1=O	0%
Cc1noc(C)c1-c1nccc(NCc2cccs2)n1	-19%
N#Cc1cccc(NC(=O)N2CCCC3(CCN(C(=O)c4cc(C(F)(F)F)cc(C(F)(F)F)c4)CC3)C2)c1	?
CC1(COc2ccc(CC3SC(=O)NC3=O)cc2)CCCCC1 (centres undefined)	50µM*!
N#Cc1cccc(NC(=O)N2CCCC3(CCN(C(=O)c4ccco4)CC3)C2)c1	-4%
C[C@@H]1CN(Cc2ccc3c(c2)CN(Cc2cccn2-c2ccc(Cl)cn2)CCO3)C[C@H](C)O1	4%
COc1ccc(CN2CCc3nnc(CCc4ccccc4)n3CC2)c(OC)c1C	-10%
CC(C)CN1CC[C@@]2(CCCN(C(=O)c3ccco3)C2)C1	-8%
COc1ccccc1-c1ccc2ncnc(NCc3cnc(C)cn3)c2c1	-28%
CC(=O)N1CCC[C@@]2(CCN(c3ncccn3)C2)C1	-25%
CC(=O)Nc1cc(C(=O)N2CCc3c(Cl)cccc3C2)cc2ncn(CCc3ccccn3)c12	?
CN1CCN(c2nc(-c3cccc(NS(C)(=O)=O)c3)nc3ccccc23)CC1	-15%
COc1ccc(-c2nc3cc(C)ccc3cc2CN(C(=O)c2cccs2)C2CC2)cc1OC	?
COc1ccnc(CS(=O)c2nc3ccc(OC(F)F)cc3[nH]2)c1OC (centres undefined)	-18%
CCN1CCCC1=O	-9%
COc1ncc2nc(-c3cccs3)c(=O)n(Cc3cccs3)c2n1	-18%
CN(Cc1ccco1)c1ncncc1-c1cccc(NS(C)(=O)=O)c1	-11%
O=C1c2ccccc2CCC1CNCCc1ccc(O)cc1 (centres undefined)	?
Cc1cccc(C(=O)N[C@H]2CC[C@@H](n3cc(C(=O)N4CCCC4)nn3)CC2)c1	-17%
CC12CCC3c4ccc(O)cc4CCC3C1CCC2=O (centres undefined)	-11%
O=C(c1cnccn1)N1CCC2(CC1)CCN(C(c1ccccc1)c1ccccc1)CC2	-25%
COc1cc(O)cc(OC)c1OC	-8%
CSc1nc(C(=O)N2CCc3c(cnc(C)c3CNC(=O)c3ccc4c(c3)OCO4)C2)cs1	-8%
Cc1c(C(=O)N2CCC(Cc3ccccc3)CC2)sc2ncnc(NCc3ccccn3)c12	?
N#Cc1cccc(NC(=O)N2CC[C@@]3(CCCN(C(=O)c4cnccn4)C3)C2)c1	-8%
Cc1cccc2cc(CN(CC3CCCO3)C(=O)c3ccccc3F)c(N(C)C)nc12 (centres undefined)	-15%
C=C1C[C@@]23CC[C@H]4[C@@](C)(CCC[C@@]4(C)C(=O)O)[C@@H]2CC[C@]1(O)C3	-12%
Cc1c(C(=O)N2CCOc3ccccc3C2)sc2ncnc(NCCCN3CCOCC3)c12	-9%
Cc1noc(C)c1-c1cncnc1NCc1ccccc1	-17%
CCC(=O)O[C@@H]1CC(=O)O[C@H](C)C/C=C/C=C/[C@@H](O)[C@H](C)C[C@H](CC=O)[C@H](OC2O[C@H](C)[C@@H](O[C@H]3C[C@@](C)(O)[C@@H](OC(=O)CC)[C@H](C)O3)[C@H](N(C)C)[C@H]2O)[C@H]1OC (some centres undefined)	36%[29.6 µM]
CC(C)=CCc1c(O)cc(O)c2c1O[C@H](c1ccccc1)CC2=O	50µM*

Assay outcomes (PubChem BioAssay)
